Screens as filed in PubChem BioAssay.
Sa helicase inh: inhibitors of S. aureus replicative helicase, primary screen, biochemical, fluorescence unwinding readout | replicative DNA helicase (DnaC/DnaB), Staphylococcus aureus | purified S. aureus helicase, fluorescence unwinding assay; about half of the hits fall short of the stated cut | inhibition, %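 (tested at about 80 µM)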 | actives 0.05% (n = 120,000);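 active = both duplicates at 50% or more, or one of them with a favoured structure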;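 also: 0% = mean of negative control wells and 100% = mean of positive control wells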
MgrA-DNA mod: S. aureus MgrA activity modulators, primary screen, biochemical, S. aureus Newman, fluorescence polarization | MgrA-DNA binding | AID 602314, 2012 | inhibition, %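 (about 10 µg/mL by stock and volumes)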 | actives 0.13% (n = 84,000);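 active = above 50% in either of two replicates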;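 also: 0% = protein plus DNA without compound and 100% = DNA alone without protein; higher means less MgrA bound to DNA so lower polarization; one replicate is shown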
The depositor's hits bear a star; nt = no result given. The list is partial (hit frequency here may not be typical).

#	Sa helicase inh	MgrA-DNA mod	molecule
1	nt	0.0	CC(C)(CCO)NC(=S)NC1CC2C=CC1C2 (stereo unspecified)
2	-2.0	nt	COc1ccc(Cl)cc1NC(=O)CSC1CCCC1
3	-7.0	nt	CC1CCc2cc(F)ccc2N1C(=O)c1ccc(=O)[nH]n1 (stereo unspecified)
4	10.0	nt	Cc1nnc(SCc2nc3ccccc3c(=O)[nH]2)n1C1CC1
5	nt	-1.8	Cc1ccc(C)n1-c1sc2c(c1C(=O)NN)CCCC2
6	16.0	-2.0	Cc1cc(Br)ccc1OCC(=O)O
7	nt	-0.2	COC(=O)c1cc(C(=O)c2ccc(Cl)cc2Cl)cn1C
8	nt	-1.4	NNC(=O)c1cncc(C#Cc2ccccc2)c1
9	6.0	2.8	Cc1cc(C(=O)NCc2cccnc2)no1
10	-24.0	nt	CCN(CC)S(=O)(=O)c1ccc(N=Nc2c(O)[nH]c(=S)[nH]c2=O)cc1
11	-32.0	nt	COc1ccc(CNC(=O)c2cc(-c3ccccc3)n[nH]2)cc1
12	nt	-0.2	O=[N+]([O-])c1ccc(C(O)C(O)CO)cc1 (stereo unspecified)

Record cards (already shown).
O=[N+]([O-])c1ccc(C(O)C(O)CO)cc1 (stereo unspecified) is entered as Sa helicase inh = nt; MgrA-DNA mod = -0.2
COc1ccc(Cl)cc1NC(=O)CSC1CCCC1 is entered as Sa helicase inh = -2.0; MgrA-DNA mod = nt
CC(C)(CCO)NC(=S)NC1CC2C=CC1C2 (stereo unspecified) is entered as Sa helicase inh = nt; MgrA-DNA mod = 0.0

Other results.
#	Sa helicase inh	MgrA-DNA mod	molecule
13	-8.0	nt	CS(=O)(=O)N1Cc2ccccc2CC1C(=O)OCC(=O)c1ccc(Br)s1 (stereo unspecified)
14	10.0	10.8	CN(CCNC(=O)Cn1ncc2c1-c1ccccc1OC2)C1CCCCC1
15	-13.0	nt	CCN(CCCNc1nnc2c3ccccc3n(C)c2n1)c1cccc(C)c1
16	-6.0	nt	O=C(/C=C/c1ccc(F)cc1)Oc1cc(Cl)c[nH]c1=O
17	6.0	0.6	COc1ccc(-c2cc(C(=O)NCCc3ccccc3)c3ccccc3n2)cc1
18	-4.0	-0.1	O=c1c2c([nH]c3ccccc13)CCCCC2
19	11.0	nt	CN(c1ccccc1)S(=O)(=O)c1ccc(C(=O)Nc2nnc(C(F)(F)F)o2)cc1
20	18.0	-0.8	C/C(=N/O)c1ccc(Br)cc1
21	-16.0	nt	NC(=O)C1CCN(c2c3c(nc4nncn24)CCC3)CC1
22	13.0	0.2	O=S(=O)(Nc1cccnc1)c1ccc(C2CCCCC2)cc1
23	nt	-1.4	CN(C)/C=C(\C#N)Sc1nnc(-n2cccc2)s1
24	-12.0	nt	Cc1cc(=O)n2nc(N3CCCC(C(=O)NC4CCN(Cc5ccccc5)CC4)C3)sc2n1 (stereo unspecified)

Two entries from above, screen by screen.
[17] COc1ccc(-c2cc(C(=O)NCCc3ccccc3)c3ccccc3n2)cc1
[18] O=c1c2c([nH]c3ccccc13)CCCCC2

| assay / entry | 17 | 18 |
| --- | --- | --- |
| Sa helicase inh | 6.0 | -4.0 |
| MgrA-DNA mod | 0.6 | -0.1 |

A few values from the results shown:
`COC(=O)c1cc(C(=O)c2ccc(Cl)cc2Cl)cn1C` | MgrA-DNA mod: -0.2
`CCN(CCCNc1nnc2c3ccccc3n(C)c2n1)c1cccc(C)c1` | Sa helicase inh: -13.0
`COc1ccc(-c2cc(C(=O)NCCc3ccccc3)c3ccccc3n2)cc1` | MgrA-DNA mod: 0.6
`NNC(=O)c1cncc(C#Cc2ccccc2)c1` | MgrA-DNA mod: -1.4

The listing continues.
#	Sa helicase inh	MgrA-DNA mod	molecule
25	16.0	5.2	CC1CN(Cc2c(O)ccc3c2oc(=O)c2ccccc23)CC(C)O1 (stereo unspecified)
26	-3.0	3.4	O=C1C2C3C=CC(C3)C2C(=O)N1CCN1CCCC1 (stereo unspecified)
27	-12.0	nt	CCOC(=O)c1noc2c1CCc1sccc1-2
28	-21.0	nt	CCOC(=O)N1CCC(N2C(=O)c3ccc(C(=O)NC4CCCCCC4)cc3C2=O)CC1
29	7.0	-1.3	CC(C)(C)N(Cc1ccccc1)C(=O)CSc1nnc(CNc2ccc(F)cc2)o1
30	-7.0	nt	CC(=O)N1CC(C)Oc2ccc(S(=O)(=O)Nc3ccc(OC(F)(F)F)cc3)cc21 (stereo unspecified)
31	11.0	3.1	O=C(/C=C/c1ccc(F)cc1)NC(=S)NN1CCOCC1
32	5.0	-3.7	Cc1ccc(S(=O)(=O)Nc2ccc3c(c2)COC3=O)c(C)c1
33	-6.0	nt	Cc1ccc(S(=O)(=O)CC(=O)c2ccccc2)cc1
34	16.0	1.9	CN(CC(N)=O)S(=O)(=O)c1ccc(F)cc1
35	-4.0	nt	C=C1C(C(=O)Nc2ccccc2N2CCOCC2)C1C(=O)Nc1ccccc1N1CCOCC1 (stereo unspecified)
36	0.0	0.0	CCSc1n[nH]c(-c2c(Cl)c(CC)nn2C)n1
37	8.0	-0.9	O=C(NCCOc1ccc(Cl)cc1)c1ccco1
38	22.0	nt	O=C(O)c1cc(-c2ccc(O)c(O)c2)nc2n[nH]c(-c3ccc(F)cc3)c12
39	-5.0	nt	CCN(CC)CC(O)COc1ccc2c(c1)OCO2 (stereo unspecified)
40	7.0	0.1	O=C(C(NS(=O)(=O)c1cccs1)c1ccccc1)N1CCN(c2cccc(Cl)c2)CC1 (stereo unspecified)
41	nt	0.3	CS(=O)(=O)CS(=O)(=O)Oc1cccc(C(F)(F)F)c1
42	-82.0	nt	CCCCn1c(NC(=O)c2ccccc2)c(C#N)c2nc3ccccc3nc21
43	-48.0	1.1	N#Cc1cc2c(=O)n3ccccc3nc2n(Cc2ccccc2)c1=O
44	8.0	nt	CCC(C)n1nccc1NC(=O)C(C)OC(=O)c1cc2ccccc2[nH]1 (stereo unspecified)
45	nt	-6.8	O=C(O)c1cccnc1OCc1ccccc1
46	-9.0	-0.8	CCOC(=O)c1ccc(NC(=O)COc2ccccc2F)cc1
47	nt	0.3	Cc1cccc(Oc2cc(NC(=O)c3sc4ccccc4c3Cl)cc([N+](=O)[O-])c2)c1
48	nt	12.2	O=C(Sc1ccccc1)c1cccc(=O)o1
49	2.0	nt	S=C(NCCN1CCOCC1)NCc1ccc2c(c1)OCO2
50	-11.0	nt	CN(C)/C=N/c1ncc(-c2ccc(Br)s2)s1
51	nt	-1.6	CN(C(=O)C1CCCCC1)c1nc(-c2ccc(Cl)s2)cs1
52	4.0	nt	CSc1nc(N/C=C2/C(=O)c3ccccc3N(C)S2(=O)=O)nc(C2CC2)n1
53	nt	-0.5	Cc1ccc(/C(C#N)=C/c2ccc3c(c2)OCO3)cc1
54	6.0	-0.3	O=C(Nc1cccc(-c2nc3ccccc3o2)c1)c1ccc(Br)cc1
55	14.0	-0.1	CNC(=O)CN1C(=O)c2ccccc2S1(=O)=O
56	10.0	-2.3	COc1cc(C(=O)Nc2ccc(S(=O)(=O)NC(C)C)cc2)cc(OC)c1OC
57	9.0	1.5	CCc1ccc(Oc2coc3cc(OC(C)C(=O)OC(C)C)ccc3c2=O)cc1 (stereo unspecified)
58	23.0	nt	O=C1OC(c2nn3c(-c4ccco4)nnc3s2)Cc2ccccc21 (stereo unspecified)
59	6.0	nt	CCc1nc(C)cc(N)c1OCc1ccccc1
60	8.0	4.4	C=CCNC(=O)C1=CC(c2ccc(OC)cc2)=NS(=O)(=O)N1C
61	-28.0	-0.2	N#Cc1ccccc1N=C/C(Br)=C/c1ccccc1
62	33.0	nt	Fc1ccc2c(c1)[C@H]1OCC[C@H]1[C@@H](c1ccco1)N2
63	-21.0	2.2	O=c1c2ccccc2n2cnnc2n1-c1ccccc1
64	nt	6.2	COc1ccc(/C=C2\C(=O)NC(=O)N(c3ccc(Br)cc3)C2=O)cc1
65	10.0	3.9	Cc1cc2c(c(=O)n1Cc1ccccn1)C(c1ccccc1)C(C#N)=C(N)O2 (stereo unspecified)
66	nt	-3.1	Cc1cc(=O)[nH]c2cc(-c3ccccc3)nn12
67	nt	-1.3	COc1cc2c(cc1OC)C(c1ccccc1)=NCC2
68	12.0	nt	CC(C)=CCCC1=NN(C=O)C(C)(CCC=C(C)C)C1 (stereo unspecified)
69	nt	1.8	CS/C(=C\C(=O)c1ccccc1)Nc1ccccc1Cl
70	22.0	nt	Cc1cc(C)cc(NC(=O)CC(C(=O)O)N(C)C)c1 (stereo unspecified)
71	15.0	0.4	COc1ccc2c(c1)CCc1c(C(=O)N3CCCC3)noc1-2
72	-5.0	nt	CCN(CC)S(=O)(=O)c1cccc(C(=O)OCc2nc3ccccc3s2)c1
73	14.0	nt	COCc1c(C(N)=O)nnn1-c1nonc1N
74	3.0	nt	CCN(CC)C(=S)SC1=C(Cl)CS(=O)(=O)C1
75	2.0	2.1	O=C(Nc1ncnc2sc3c(c12)CCCCC3)c1ccc(F)cc1
76	-6.0	nt	COc1ccc(-c2nnc(SCC(=O)NC3CCCc4ccccc43)o2)cc1OC (stereo unspecified)
77	5.0	1.3	O=C1C=CC(=O)N1Cc1ccc(Cl)cc1
78	6.0	nt	N=C(N)N1CCOCC1
79	30.0	nt	O=C1OC2(CCCCC2)OC(=O)C1=Cc1ccc(-c2ccc(C(=O)O)cc2)o1
80	4.0	0.4	CCOC(=O)Cc1csc(NC(=O)Nc2cccs2)n1
81	nt	0.1	Cc1nc(C(F)(F)F)ccc1C(=O)N1CCN(c2nc3ccc(Cl)cc3s2)CC1
82	-9.0	3.0	c1ccc(Cn2c(CN3CCCC3)nc3ccccc32)cc1
83	-5.0	nt	C=CCn1c(SCc2cc(=O)n3ccsc3n2)nnc1C1CCCCC1
84	1.0	nt	O=C(N/N=C/c1nc2ccccc2[nH]1)c1ccccc1

Further structures follow:
#	Sa helicase inh	MgrA-DNA mod	molecule
85	4.0	nt	Cc1ccc(CCNC(=O)C2CCN(S(=O)(=O)N3CCOCC3)CC2)cc1
86	28.0	nt	O=C(O)CCCC(=O)Nc1nc(-c2ccc(F)cc2)cs1
87	8.0	nt	CCc1nnc(NC(=O)C(C)Sc2ccccc2)s1 (stereo unspecified)
88	-7.0	nt	C=C(C)Cn1c(N2CC(C)CC(C)C2)nc2c1c(=O)n(C)c(=O)n2C (stereo unspecified)
89	nt	1.1	CCOC(=O)c1csc(-c2snnc2C)n1
90	5.0	nt	O=C(Nc1ccc2c(c1)nc1n2CCN(Cc2ccccc2)C1)c1ccccc1
91	nt	-0.1	CCCOc1ccc(OCCSc2nc3ccccc3n2CCO)cc1
92	8.0	-0.9	O=C(Nc1ccccc1C(=O)N1CCCC1)Oc1ccccc1
93	7.0	nt	CSC1=NCCN1C(=O)c1ccc(C(F)(F)F)cc1
94	3.0	nt	CC1CCCC(C)N1C(=O)COC(=O)c1ccc(Br)cc1 (stereo unspecified)
95	21.0	nt	COc1ccc(C(=O)N/C(=C\c2cn(S(=O)(=O)N(C)C)c3ccccc23)C(=O)NCc2ccco2)cc1
96	-4.0	1.1	Cc1ccc(C(C)NC(=O)c2ccc3c(c2)OCO3)cc1C (stereo unspecified)
97	22.0	7.1	O=c1c(-[n+]2ccccc2)cc2[nH]c3ccccc3c2n1-c1ccccc1
98	-10.0	2.6	Cc1ccc(-n2c(C)cc(/C=C3\SC(=O)NC3=O)c2C)cc1
99	-4.0	-2.3	Nc1ccc2c(c1)nc(CO)n2CCO
100	-2.0	-0.2	O=C(O)C1CSC2(CCN(Cc3ccccc3)CC2)N1 (stereo unspecified)
101	14.0	0.1	O=C(Oc1cccc2cccnc12)c1cn(-c2ccccc2)nc1-c1ccccc1
102	12.0	nt	CCN(c1ccccc1)S(=O)(=O)c1ccc2[nH]c(=O)c(=O)[nH]c2c1
103	nt	-1.5	CCOc1cc(/C=C2\N=C(c3cc(F)c(F)cc3Cl)OC2=O)ccc1OC(C)=O
104	-6.0	-2.5	O=C(CSc1nc2[nH]c(=O)cc(O)c2s1)NCc1ccccc1
105	nt	3.3	Cn1nc(OC(C)(C)C(=O)Oc2ccc(Cl)cc2Cl)cc1C(F)(F)F
106	13.0	nt	Cc1cc(C)cc(OCC(=O)n2nc(C)cc2C)c1
107	nt	3.4	CCOC(=O)c1sc(Nc2ccccc2)c(-c2nc3ccccc3[nH]2)c1N
108	-10.0	nt	Cc1ccc(S(=O)(=O)NCc2csc(C)n2)c(C)c1
109	nt	-1.4	CCOC(=O)CSCN1CCCCC1
110	-17.0	nt	CCOC(=O)C1=NNC2C(=O)N(Cc3ccccc3)C(=O)C12 (stereo unspecified)
111	-5.0	nt	CCCOc1ccc(C(F)(F)F)cc1NC(=O)CN1CSCC1=O
112	9.0	-0.4	O=C(O)c1cc(=O)[nH]c2c(Cl)cccc12
113	14.0	-5.2	COc1ccc(C(=O)NC2CCCCC2NC(=O)c2ccc(OC)cc2)cc1 (stereo unspecified)
114	nt	-3.2	CSc1nc(N)nc(C23CC4CC(CC(C4)C2)C3)n1
115	-11.0	nt	Nc1nc(CN2CCCCC2)nc2ccccc12
116	nt	2.4	COC(=O)CSc1nc2ccc(Cl)cc2s1
117	nt	-1.2	N#Cc1ncoc1-c1ccc(C(F)(F)F)cc1
118	nt	-1.2	O=C(NC1CCN(C(=O)c2ccco2)CC1)C1CCCCC1
119	10.0	-7.0	CC1(C)CC(=O)c2cc3c(N)c(C(=O)c4ccc(Cl)cc4)sc3nc2C1
120	-12.0	nt	O=C(O)c1ccccc1C(=O)c1ccc2c(c1)OCCO2
121	33.0	nt	O=[n+]1c2c(n([O-])c3c1CCCC3)CCCC2
122	nt	3.4	COc1ccc2[nH]c(C(=O)Nc3ccccc3Cl)cc2c1
123	6.0	-2.8	C[N+](C)(C)CCOc1ccc2nc(N)sc2c1
